A488 autofl = qHTS Assay for Spectroscopic Profiling in A488 Spectral Region; max dye equivalency, M; compound autofluorescence, A488 spectral region, dye equivalency; hits give high values; actives 0.1% (n = 59,000); active = above 10 nM dye equivalent; inconclusive = 1 to 10 nM; inactive = 1 nM or less; about half of its hits are not listed in these tables;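 also: highest value over a series up to 38 µM; compound alone in buffer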
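Autofluorescence read at ex 480/em 540 nm after 15 min RT in 100 mM Tris pH 8.0; compound signal normalized to A488 standard series on each plate, reported as dye-equivalent concentration at each test concentration.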
A647 fluor = qHTS Assay for Spectroscopic Profiling in A647 Spectral Region; Compound fluorescence, A647 channel (570/671 nm), Tris buffer; max dye-equivalent concentration, M; 59,000 tested, under 10 active; active means above 1 µM dye equivalent; inconclusive means 0.1 to 1 µM; inactive means 0.1 µM or less;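 also: values scaled relative to a standard on each plate; highest value over a series up to 38 µM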
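Compound fluorescence was measured in 100 mM Tris buffer, pH 8.0, after 15 min at room temperature, using 570 nm excitation and 671 nm emission filters. Signal was normalized to a per-plate Alexa 647 standard curve and expressed as dye-equivalent concentration at each compound concentration.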
TSHR ag = qHTS Assay for Agonists of the Thyroid Stimulating Hormone Receptor. Thyrotropin receptor (Homo sapiens), P16473. HEK293-CNG-TSHR cells (CNG channel as cAMP sensor), membrane potential dye, cAMP. actives 0.48% (n = 73,000). Potency, µM (doses to about 57.1 µM), without a hit: at the highest dose activation, usual class: activators; active = well fitted activation curve of enough size with the parental cells flat; inconclusive = any curve in the parental cells; inactive = parental cells flat and receptor cells flat or falling; also: potency is read from the fitted curve at half-maximal effect; % of control where 0% means no effect; weak receptor curves with flat parental cells got no call and are not listed
Target sequence (P16473 whole entry, looked up): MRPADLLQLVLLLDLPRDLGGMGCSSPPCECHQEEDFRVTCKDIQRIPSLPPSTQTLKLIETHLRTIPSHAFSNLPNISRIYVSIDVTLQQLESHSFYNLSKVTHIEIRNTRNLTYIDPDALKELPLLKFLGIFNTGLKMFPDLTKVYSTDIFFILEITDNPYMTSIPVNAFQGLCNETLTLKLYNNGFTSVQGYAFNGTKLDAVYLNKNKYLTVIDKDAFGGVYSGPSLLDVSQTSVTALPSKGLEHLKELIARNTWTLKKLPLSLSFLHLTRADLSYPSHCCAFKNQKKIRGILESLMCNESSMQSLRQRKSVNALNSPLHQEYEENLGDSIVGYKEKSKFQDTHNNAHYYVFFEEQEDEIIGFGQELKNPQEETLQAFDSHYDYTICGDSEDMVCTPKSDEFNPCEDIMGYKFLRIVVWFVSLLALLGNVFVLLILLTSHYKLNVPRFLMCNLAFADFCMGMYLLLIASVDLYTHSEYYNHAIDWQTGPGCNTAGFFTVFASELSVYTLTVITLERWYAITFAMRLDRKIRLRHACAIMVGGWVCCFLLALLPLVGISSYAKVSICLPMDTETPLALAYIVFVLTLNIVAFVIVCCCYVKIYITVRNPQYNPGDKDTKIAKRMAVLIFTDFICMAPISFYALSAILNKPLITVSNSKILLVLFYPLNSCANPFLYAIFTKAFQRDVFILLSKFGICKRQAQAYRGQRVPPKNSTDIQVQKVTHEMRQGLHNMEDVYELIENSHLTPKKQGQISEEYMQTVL
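HEK 293 cells stably expressing TSHR and a cAMP-gated CNG channel; parental CNG-only cells as counterscreen. Cells preloaded 60 min with membrane potential dye plus 100 uM RO 20-1724, then compound 30 min; fluorescence read at 590 nm.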
AID923 = qHTS Assay for Allosteric/Competitive Inhibitors of Caspase-1: Spectroscopic Profiling in AFC Spectral Region | compound fluorescence, AFC spectral region (405/520 nm); almost no hit is shown here | Potency, µM (top dose mostly 57.5 µM), for inactives: top-dose fluorescence increase, most hits filed as activators | actives 1.1% (n = 75,000) | AID 923, 2007; active = well fitted activation curve with a large enough effect; inconclusive = small, poorly fitted or top-dose-only effect;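 also: potency is read from the fitted curve at half-maximal effect; 0% is about no effect; scaled to a free AFC standard on each plate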
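Compound autofluorescence profiled at 405 nm ex/520 nm em during kinetic caspase 1 run (50 nM enzyme, 5 uM Ac-WEHD-AFC, HEPES pH 7.5, 10 mM DTT). Titration up to 57 uM; baseline from regression intercept, normalized to AFC standard curve.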
Resorufin autofl = qHTS Assay for Spectroscopic Profiling in Resorufin Spectral Region | AID 588, 2007 | max dye-equivalent concentration, M | Compound fluorescence, resorufin region 547/598 nm, buffer; hits give high values | actives 0.04% (n = 59,000); active = above 10 nM dye equivalent; inconclusive = 1 to 10 nM; inactive = 1 nM or less; a few of its hits are not listed in these tables; also: highest value over a series up to 38 µM
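Intrinsic fluorescence profiled in the resorufin window (ex 547 nm, em 598 nm) after 15 min at room temperature in pH 8.0 Tris buffer (100 mM); responses normalized against a six-point resorufin standard series as dye-equivalent concentration.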
An asterisk follows results filed as active; i = inactive; ? = inconclusive; / = no result given; & = joins results of further samples; [ ] = dose if it differs, or a comment.

SMILES	A488 autofl	A647 fluor	TSHR ag	AID923	Resorufin autofl
CCOC(=O)CCn1c2nc(C)cc(C)c2c(=O)n1-c1ccccc1	i	1.4e-08	1%	-1.6%	i
Fc1ccccc1-c1nc(N2CCCCC2)c2ccccc2n1	i	1.2e-08	/	/	i
O=C(c1ccc(S(=O)(=O)N2CCOCC2)cc1)N(c1ccc(F)cc1)C1C=CS(=O)(=O)C1 (stereo not drawn)	i	7.8e-09	1%[11.4 µM]	0.8%	i
CC(=O)c1coc2ccc(OCC(=O)O)cc12	i	1e-09	?	-0.5%	i
O=C(c1cnccn1)N1CCN(C/C=C/c2ccccc2)CC1	i	3.2e-08	5%	-0.6%	i
O=C1CC(N2CCCc3ccccc32)C(=O)N1c1ccccc1 (stereo not drawn)	/	/	-16%	-0.2%	/
CC(=O)N1[C@H](Cc2ccccc2)C=C[C@]1(C)C(=O)NCc1ccc(C)o1	/	/	13%	-0.4%	/
Cc1ccc(-c2ccc(S(=O)(=O)N3CCN(C)CC3)cc2)cc1	i	1e-09	12%	-3.6%	i
CCN(CC)CCCCn1c(-c2ccccc2)nc2c(Nc3ccccc3)nc(C)nc21	/	/	8%	0.7%	/
O=C(c1cc(=O)c2ccccc2o1)N1CCCc2ccccc21	i	3.9e-08	3%	-0.4%	i
COc1ccc(CCNC(=O)c2cnc3scc(C)n3c2=O)cc1OC	/	/	18%	-3.3%	/
CCCc1cc(C(=O)Nc2sc3c(c2C#N)CCC3)no1	/	/	4%	2.6%	/
Cn1c(SCCOc2ccc(Cl)cc2)nnc1-c1ccncc1	i	1e-09	0%	-0.3%	i
CCc1nnc(NC(=O)c2cc3ccccc3oc2=O)s1	i	1e-09	-11%	0.5%	i
Cc1ccc2c(C(=O)CN3CCCC3)c(C)[nH]c2c1	i	4.1e-08	4%	5.9%	i
Cc1cc(C)nc(SCSc2nc(C)cc(C)n2)n1	/	/	-10%	-0.8%	/
O=C(O)C1CCCCC1C(=O)NCCCCc1ccccc1 (stereo not drawn)	i	4.5e-09	12%	-1.6%	i
CCc1c(C)nc(N2CCOCC2)[nH]c1=O	i	7.6e-09	/	-0.3%	i
O=C(Nc1ccc(-c2nnco2)cc1)c1ccccc1	i	1e-09	3%	1.3%	i
Cn1c(=O)cc(SCC(=O)NCCN2CCN(c3ccccc3F)CC2)c2cc(Cl)ccc21	i	7.4e-09	3%[11.4 µM]	-0.8%	i
COc1ccc(OCc2nn3c(Cn4cnc5ccccc54)nnc3s2)cc1	i	1.7e-09	21%	0.2%	i
CCCCNC(=O)c1c(N)n(/N=C/c2cccnc2)c2nc3ccccc3nc12	i	6.6e-09	/	/	i
Cc1c(C(=O)N2CCCC2)sc(NC(=O)c2cccs2)c1C#N	i	1.4e-08	4%	1.6%	i
CCn1c(CNc2ccc(F)cc2)nnc1SCCN1CCCCC1	i	9.4e-09	2%	0.5%	i
CCc1ccc(NC(=O)N(CCN2CCOCC2)C2CCN(C(C)=O)CC2)cc1	i	8.1e-09	1%	0.0%	i
Other records
SMILES	A488 autofl	A647 fluor	TSHR ag	AID923	Resorufin autofl
CCOc1cccc(-c2nnc(SCC(=O)Nc3ccc(OC)c(OC)c3)n2N)c1	i	6.7e-09	-2%	-2.0%	i
Cc1cc(/N=C/N(C)C)on1	i	2.6e-09	-2%	-0.2%	i
O=C(Cn1c(CC(=O)N2CCCC2)nc2ccccc21)NCc1ccccc1	i	1.1e-09	1%	0.7%	i
O=C(CSc1nnc(CNc2ccc(F)cc2)n1Cc1ccccc1)NCc1ccco1	i	1.5e-08	10%	-0.4%	i
CCc1nnc(NC(=O)CSc2ncc(-c3ccccc3)n2C)s1	i	1.9e-08	6%	0.6%	i
N#Cc1ccsc1NC(=O)CSc1ncnc2ccccc12	i	1e-09	18%	-3.4%	i
CCOc1ccc(C2/C(=C(/O)c3ccc(Cl)cc3)C(=O)C(=O)N2CCCN(C)C)cc1OC (stereo not drawn)	i	1.5e-08	?	2.0%	i
O=C(Nc1ccccc1C(=O)N1CCOCC1)C1CC(=O)N(C2CCCC2)C1 (stereo not drawn)	i	1e-09	9%	-2.2%	i
O=C(c1cccc(Br)c1)N1CCN(C(=O)N2CCCCC2)CC1	i	2.9e-08	-1%	-2.1%	i
COC(=O)c1[nH]c2c(c1C)C(=O)CC(c1cccs1)C2 (stereo not drawn)	i	2e-09	/	-2.9%	i
CCCS(=O)(=O)N1CCC(C(=O)NCc2ccccc2Cl)CC1	i	1.2e-09	0%	0.3%	i
Cn1cccc1Cc1nnc(SCC(=O)NCC2CCCO2)n1-c1ccc(F)cc1 (stereo not drawn)	/	/	10%	-6.8%	/
CCOC(=O)C1CCCN(c2c(N3CCN(C4CCCCC4)CC3)c(=O)c2=O)C1 (stereo not drawn)	/	/	5%	2.8%	/
COc1ccc(N2CCN(c3cc(=O)n(Cc4ccc(F)cc4)c(=O)[nH]3)CC2)cc1	/	/	1%	3.5%	/
CCOC(=O)c1csc(NC(=O)CSc2nnnn2-c2ccc(OC)cc2)n1	i	1e-09	15%	-2.2%	i
CC(c1ccccc1F)n1cc(C(=O)NCCc2ccco2)nn1 (stereo not drawn)	i	2.5e-08	?	2.0%	i
COc1ccc(C(=O)c2ccc(N(C)C)cc2)c(OC)c1	i	1.7e-09	?	2.8%	i
CC1=Nn2c(nnc2-c2ccco2)SC1	i	2.9e-08	9%	-0.4%	i
O=C(COc1ccc(-c2nnco2)cc1)N1CCN(S(=O)(=O)c2ccc3ccccc3c2)CC1	i	1e-09	26%	-1.4%	i
COc1nc(C)ccc1-c1noc(-c2ccco2)n1	i	1e-09	-1%	-0.7%	i
O=C(O)c1ccc(Nc2ccnc3cc(Cl)ccc23)cc1O	i	1e-09	-2%[11.4 µM]	-2.9%[11.5 µM]	i
CC(=O)Nc1ccc(S(=O)(=O)N2CCSC2C(=O)O)cc1 (stereo not drawn)	i	1e-09	-1%	1.0%	i
Cc1cccc(CNc2ccnc(-c3cccc(C#N)c3)n2)c1	i	2.7e-08	?	3.5%	i
CC(C)COC(=O)c1cc(=O)[nH]c2ccccc12	/	/	11%	0.4%	/
Cc1ccc2nc(NC(=O)CN(C)S(=O)(=O)c3ccc(Br)s3)sc2c1	i	4.1e-08	-1%[11.4 µM]	-0.1%	i
The results go on.
SMILES	A488 autofl	A647 fluor	TSHR ag	AID923	Resorufin autofl
CCSc1ccccc1C(=O)NCc1ccc2c(c1)OCO2	i	3.8e-08	16%	-0.2%	i
CSc1ncccc1C(=O)OCC(=O)c1cc2ccccc2o1	i	1.1e-09	-1%	1.2%	i
COc1ccc2nc(SCC(=O)NC(C)(C)C)[nH]c2c1	i	1.6e-08	4%	-1.8%	i
C=CCN1C(=Nc2cccnc2)SCC1(O)c1ccc(C)cc1 (stereo not drawn)	i	3.5e-08	?	0.5%	i
N[C@H](C(=O)O)c1cc(O)cc(O)c1	i	2e-08	?	-2.3%&-3.2%	i
CNC(=O)CN(c1ccc(C(C)C)cc1)S(C)(=O)=O	/	/	3%	0.8%	/
CCn1c(=O)c(C)nn2c3ccccc3nc12	i	1e-09	-5%	-0.1%	i
O=C(Nc1ccc(N2CCCC2)c(Cl)c1)c1ccco1	/	/	-9%[11.4 µM]	15%	/
COc1ccc(N(C(=O)Cn2nnc3ccccc32)C(C(=O)NCc2ccco2)c2cccnc2)cc1 (stereo not drawn)	i	1e-09	0%	1.6%	i
CN(C)S(=O)(=O)Nc1ccccn1	i	1.3e-08	?	-0.8%[11.5 µM]	i
CCn1c2ccccc2c2nnc(SCC(=O)OCN3C(=O)c4ccccc4C3=O)nc21	/	/	-2%[11.4 µM]	-1.0%	/
C=C(C)CSc1nnc(-c2cccc(Cl)c2)n1N	i	3.3e-08	11%	0.3%	i
Cn1cccc1C(=O)N1CCC2(CC1)CN(c1cccc(-c3ccccc3)c1)C2	i	1.8e-08	/	1.7%	i
NC(=O)CSC1=Nc2ccccc2C2=NC(CCC(=O)NCc3ccc(F)cc3)C(=O)N12 (stereo not drawn)	i	1.4e-08	5%	0.3%	i
O=C(NCCCN1CCN(c2ccccc2F)CC1)C1CCN(S(=O)(=O)c2cccs2)CC1	i	6.4e-09	8%	-0.4%	i
Fc1ccc(Nc2ccnc(-c3ccccc3C(F)(F)F)n2)cc1	i	2.1e-08	1%	-0.5%	i
CCS(=O)(=O)c1ccc(O)c(NC(=O)c2cc(OC)c(OC)c(OC)c2)c1	/	/	2%	-0.1%	/
CN(C)c1ccc(C2NCCS2)cc1 (stereo not drawn)	i	1.7e-08	-2%	-6.4%	i
O=C(c1ccccc1)c1ccc(OCC(O)CN2CCCCC2)cc1 (stereo not drawn)	i	1e-09	13%	-0.1%	i
CCCN1CCN(C(=O)Cn2c(=O)oc3cc(S(=O)(=O)NCc4ccccc4)ccc32)CC1	/	/	14%	2.5%	/
O=C(c1ccccc1Cl)N1CCC(c2nc3c(nnn3Cc3ccco3)c(=O)[nH]2)CC1	/	/	2%	1.5%	/
CC(NC(=O)c1ccccc1Cl)C(=O)O (stereo not drawn)	/	/	2%[11.4 µM]	1.7%	/
CO[C@H]1COC(=O)[C@@H](Cc2ccccc2)NC(=O)[C@@H](C)COC(=O)C/C=C\[C@@H]1C	/	/	-1%[11.4 µM]	-1.3%[11.5 µM]	/
Cc1cc(C)c2c(=O)[nH]c(SCC(=O)N3CCCCC3)nc2n1	/	/	13%[11.4 µM]	-1.6%	/
Cc1cccc(NC(=O)Cn2cccc2)c1	i	2.7e-08	-1%	0.8%	i
Additional results follow.
SMILES	A488 autofl	A647 fluor	TSHR ag	AID923	Resorufin autofl
COCCCn1c(SCC(=O)N(C)C)nnc1-c1ccccc1	i	1.2e-08	0%	0.0%	i
Cc1cc(C)n(-c2nc3ccccc3nc2N2CCN(C(=O)c3ccccc3)CC2)n1	i	2.2e-09	/	3.8%	i
COc1ccc(C(=O)Nc2ccncc2)cc1OC	/	/	6%	-0.7%	/
CNS(=O)(=O)c1cccc(C(=O)OC2CCCCC2=O)c1 (stereo not drawn)	i	3.9e-09	-4%	-0.7%	i
O=c1c(-c2ccc(Cl)cc2)nc2cncnc2n1Cc1ccccc1Cl	i	1e-08	-3%	6.6%	i
COc1ccc2cnn(Cc3ccccc3)c(=O)c2c1OC	i	4.9e-09	-13%	-0.8%	i
COC(=O)c1ccc(NC(=O)CN(C)S(=O)(=O)c2ccc(OC)c(C)c2)cc1	i	1e-08	-9%	-2.0%	i
COC(=O)C1=C(C)N(Cc2ccccc2)C2=C(C(=O)c3ccccc3)C(c3ccccc3)[C@@](O)(C(=O)OC)C(=O)N2C1c1ccccc1 (stereo partly drawn)	/	/	1%&2%[11.4 µM]	3.1%&13%[11.5 µM]	/
CCN(CC)S(=O)(=O)c1ccc(N2CCCC2)c(C(=O)OCC(=O)/C(C#N)=C(\C)N)c1	i	1e-09	25µM*	0.8%	i
COc1ccc(CCN2CNc3c(c(=O)n(C)c(=O)n3C)C2)cc1OC	i	1e-09	-12%	0.2%	i

In the list so far, these have a cyano group.
SMILES	A488 autofl	A647 fluor	TSHR ag	AID923	Resorufin autofl
CCCc1cc(C(=O)Nc2sc3c(c2C#N)CCC3)no1	/	/	4%	2.6%	/
Cc1c(C(=O)N2CCCC2)sc(NC(=O)c2cccs2)c1C#N	i	1.4e-08	4%	1.6%	i
N#Cc1ccsc1NC(=O)CSc1ncnc2ccccc12	i	1e-09	18%	-3.4%	i
Cc1cccc(CNc2ccnc(-c3cccc(C#N)c3)n2)c1	i	2.7e-08	?	3.5%	i
CCN(CC)S(=O)(=O)c1ccc(N2CCCC2)c(C(=O)OCC(=O)/C(C#N)=C(\C)N)c1	i	1e-09	25µM*	0.8%	i

From PubChem BioAssay

Some of the compounds tested; count on the stated rates, not on these rows.
